eIF4H FP inh: inhibitors of RNA binding by human eIF4H; hit rate 0.94% among 290,000; inhibition, % at 35 µM; Q15056; eIF4H fluorescence polarization binding assay;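 active = 50% or more with normal probe brightness, or confirmed in later tests; inconclusive = above 50% with abnormal brightness, or retests that disagree; inactive = below 50% or failed in later tests; about a fifth of its hits are not listed in these tables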;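 note: calls also rest on retests at 20 µM and on dose response follow-up; 0% = protein and probe with vehicle and 100% = probe without protein; strong numbers were not always called active; many hits fall short of the cut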
CSC inhib: blocks cancer stem cells; cancer stem cell-like cells viability, luminescence; inhibition, % at 7.5 µM; hit rate 1.1% among 300,000; AID 2717;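 active = mean at 75% or more and at least half the replicates too; inconclusive = mean and replicates disagree; tested in HMLE shEcad cells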;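 note: 0% = median of negative and 100% = median of positive control wells; the first replicate is given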
MT1-MMP act inh: blocks activation of human MT1-MMP; P50281; HT1080 RFP-PRO-GFP cells, GFP/RFP ratio fluorescence, overnight; percent of plate control window, DMSO zero; GFP/RFP ratio change, % at 20 µM; hit rate 0.061% among 360,000; AID 651647;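 active = GFP/RFP ratio change of at least 30% with cell ATP level not reduced by more than half and red fluorescence within 50% of control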; note: strong numbers were not always called active
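Assay system: HT1080 RFP-PRO-GFP cells. Benchmarks: DMSO vehicle wells and RFP-L50D-GFP reporter cell wells. Times: overnight cell settling, then overnight compound exposure, 37 °C, 5% CO2. Compound: 20 µM single dose, 1% DMSO. Read-out basis: GFP/RFP fluorescence ratio.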
Rce1 inh: blocks yeast Ras-converting enzyme | Q03530 | yeast membranes, quenched prenylated peptide cleavage fluorescence | calls only | hit rate 0.27% among 290,000 | AID 2563;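 active = fall in fluorescence gain of 50% or more versus controls, with final raw signal at or below 3038400; inconclusive = same 50% fall but final raw signal above 3038400; inactive = fall in fluorescence gain under 50%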;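 note: plate controls were neutral control wells for no effect and wells lacking membranes for full effect; tested at 10 µM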
Target sequence (Q03530 whole entry, looked up): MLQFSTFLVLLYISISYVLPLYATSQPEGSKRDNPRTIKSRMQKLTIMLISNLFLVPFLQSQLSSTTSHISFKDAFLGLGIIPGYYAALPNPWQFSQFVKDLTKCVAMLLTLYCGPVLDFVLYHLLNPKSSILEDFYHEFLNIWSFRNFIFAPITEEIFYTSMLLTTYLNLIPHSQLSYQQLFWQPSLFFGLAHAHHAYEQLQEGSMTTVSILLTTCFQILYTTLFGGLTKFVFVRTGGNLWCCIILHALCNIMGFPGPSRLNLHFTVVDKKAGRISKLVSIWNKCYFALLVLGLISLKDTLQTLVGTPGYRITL
PABP FP inh: blocks human PABP binding to poly(A) RNA; P11940; fluorescence polarization; inhibition, % at 35 µM; hit rate 1% among 290,000;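 active = 50% or more with normal probe brightness, or confirmed in later tests; inconclusive = above 50% with abnormal brightness, or retests that disagree; inactive = below 50% or failed in later tests; about a fifth of its hits are not listed in these tables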;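 note: calls also rest on retests at 20 µM and on dose response follow-up; controls were probe without protein and protein plus probe with vehicle; some compounds called inactive have numbers as strong as hits; many hits fall short of the cut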
Target sequence (P11940 whole entry, looked up): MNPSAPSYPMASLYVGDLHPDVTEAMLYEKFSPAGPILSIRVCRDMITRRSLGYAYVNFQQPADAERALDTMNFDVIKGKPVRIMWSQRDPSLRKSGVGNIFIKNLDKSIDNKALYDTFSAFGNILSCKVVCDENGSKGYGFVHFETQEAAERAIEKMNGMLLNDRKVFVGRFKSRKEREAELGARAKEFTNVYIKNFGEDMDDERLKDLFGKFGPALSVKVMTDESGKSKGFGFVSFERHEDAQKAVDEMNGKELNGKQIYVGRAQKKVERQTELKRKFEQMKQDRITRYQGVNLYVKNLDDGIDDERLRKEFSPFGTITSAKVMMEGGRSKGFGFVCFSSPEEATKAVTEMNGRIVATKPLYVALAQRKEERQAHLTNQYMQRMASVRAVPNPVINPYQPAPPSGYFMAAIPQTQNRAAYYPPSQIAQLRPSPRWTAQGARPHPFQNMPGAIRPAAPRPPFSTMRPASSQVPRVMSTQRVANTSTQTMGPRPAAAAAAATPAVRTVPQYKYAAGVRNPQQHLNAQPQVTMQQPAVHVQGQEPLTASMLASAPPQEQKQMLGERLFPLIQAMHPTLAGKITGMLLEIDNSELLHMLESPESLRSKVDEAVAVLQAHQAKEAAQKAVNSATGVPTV
Env fusion inh: inhibitors of HIV Env-mediated cell fusion | HeLa-JRFL Env/CEM21 cell fusion, luciferase | inhibition, % at 12.3 µM | hit rate 1.1% among 360,000 | AID 651610;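 active = mean replicate inhibition score of at least 50 and every replicate individually at or above 50; inconclusive = only one of the two criteria met; inactive = mean below 50 and not all replicates reaching 50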;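 note: 0% = plate neutral controls and 100% = maraviroc near 300 nM; one replicate is shown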
Yeast UUG start: yeast start codon fidelity modulation; activity score, % at 18.7 µM; S. cerevisiae UUG-firefly luciferase reporter, luminescence/redox ratio; AID 602363; hit rate 0.13% among 350,000;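 active = replicate mean at a twofold rise or more, about +100% in these data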;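 note: firefly luciferase made from a UUG start codon reports start codon fidelity; reporter light over untreated wells divided by growth signal over untreated wells; some hits fall short of that in this replicate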
eIF4H FP inh retest: further read-out of eIF4H FP inh, marked with its call; inhibition, %; compound at 20 µM; confirmation average;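 mean of two retest wells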
PABP FP inh retest: also measured in PABP FP inh; calls as there; inhibition, %; compound at 20 µM; confirmation repeats;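 mean of two retest wells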
MT1-MMP act inh RFP: further read-out of MT1-MMP act inh, marked with its call; RFP signal change, %; measured here: RFP expression control read;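 0 = vehicle wells; hits needed this value within 50% of zero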
Active calls of the source: *; & = joins results of further samples; [ ] = dose if it differs, or a comment.

Results for CSc1ccccc1C(=O)N1CCCCC1 ?
eIF4H FP inh: 9; CSC inhib: 5; MT1-MMP act inh: 1; Rce1 inh: inactive; PABP FP inh: -8; Env fusion inh: 4; MT1-MMP act inh RFP: 1

Results for Cc1cc(C)c(C(=O)COC(=O)CN2C(=O)NC3(CCCC3)C2=O)cc1C ?
CSC inhib: -12; MT1-MMP act inh: -2; Env fusion inh: 16; Yeast UUG start: -13; MT1-MMP act inh RFP: 3

Results for C[C@H]1CN([C@@H](C)CO)S(=O)(=O)c2ccc(Br)cc2O[C@H]1CN(C)C(=O)Cc1ccncc1 ?
MT1-MMP act inh: 2; Env fusion inh: 2[16.7 µM]; Yeast UUG start: 19&-24; MT1-MMP act inh RFP: 9

Results for Cc1cccc2cc(C#N)c(N3CCN(C)CC3)nc12 ?
eIF4H FP inh: 0; CSC inhib: -12; MT1-MMP act inh: -10; Rce1 inh: inactive; PABP FP inh: 0; Env fusion inh: -9; Yeast UUG start: 6; MT1-MMP act inh RFP: -4

How did O=C(c1ccc(CS(=O)c2ccccc2Cl)o1)N1CCOCC1 (configuration not stated) do in these assays?
eIF4H FP inh: -2; CSC inhib: -7; MT1-MMP act inh: 1; Rce1 inh: inactive; PABP FP inh: -1; Env fusion inh: -11; Yeast UUG start: 5; MT1-MMP act inh RFP: 2

Results for CC(C)[C@H](NC(=O)c1ccco1)C(=O)N(C)Cc1ccc(C(F)(F)F)cc1 ?
eIF4H FP inh: -10; CSC inhib: -6; MT1-MMP act inh: -1; PABP FP inh: -1; Env fusion inh: 4; Yeast UUG start: -10; MT1-MMP act inh RFP: 1

What do the screens show for `C/C(=N\NC(=O)c1nnn(-c2nonc2N)c1-c1cccs1)c1cccnc1`?
eIF4H FP inh: -9; CSC inhib: -3; MT1-MMP act inh: -9; Rce1 inh: inactive; PABP FP inh: -1; Env fusion inh: 9; Yeast UUG start: -5; MT1-MMP act inh RFP: -1

What do the screens show for `O=C(NCc1ccco1)C1CCN(c2ccc(N3CCOCC3)nn2)CC1`?
eIF4H FP inh: -22; CSC inhib: -1; MT1-MMP act inh: 4; Rce1 inh: inactive; PABP FP inh: -3; Env fusion inh: -22; Yeast UUG start: -18; MT1-MMP act inh RFP: 5

How did CC1(C)CC(=O)C(C=NCCN2CCN(C(=O)CC3CCCC3)CC2)=C(O)C1 do in these assays?
eIF4H FP inh: -6; MT1-MMP act inh: 3; Rce1 inh: inactive; PABP FP inh: 11; Yeast UUG start: -7; MT1-MMP act inh RFP: 2

Results for CS(=O)(=O)c1ccc(-c2cccc(NC(=O)COc3ccc(Cl)cc3)c2)nn1 ?
eIF4H FP inh: 5; CSC inhib: 17; MT1-MMP act inh: 6; Rce1 inh: inactive; PABP FP inh: 14; Env fusion inh: 3; Yeast UUG start: -14; MT1-MMP act inh RFP: 3

What do the screens show for `NC(=O)C1CC(=O)N(c2ccc(OCC(=O)Nc3ccccc3F)cc2)C1` (configuration not stated)?
CSC inhib: -8; MT1-MMP act inh: 2; Yeast UUG start: 1; MT1-MMP act inh RFP: 6

What do the screens show for `Cc1ccc(S(=O)(=O)N2CCN(C(=O)N3CCOCC3)CC2)c(C)c1`?
eIF4H FP inh: -12; CSC inhib: -10; MT1-MMP act inh: -5; Rce1 inh: inactive; PABP FP inh: -2; Env fusion inh: 2; Yeast UUG start: -2; MT1-MMP act inh RFP: -4

Results for O=C1NC(NS(=O)(=O)c2ccc(Cl)cc2)(C(F)(F)F)C(=O)N1c1ccccc1 (configuration not stated) ?
eIF4H FP inh: 8; CSC inhib: -1; MT1-MMP act inh: 1; Rce1 inh: inactive; PABP FP inh: 12; Env fusion inh: 19; Yeast UUG start: -2; MT1-MMP act inh RFP: 2

How did Cn1c(=N)n(CC(O)c2cccs2)c2ccccc21 (configuration not stated) do in these assays?
eIF4H FP inh: -7; CSC inhib: -7; MT1-MMP act inh: -4; Rce1 inh: inactive; PABP FP inh: 13; Env fusion inh: 10; Yeast UUG start: 0; MT1-MMP act inh RFP: -3

What do the screens show for `C[C@@H]1CC=C[C@H]2[C@H]1C(=O)N(Cc1ccccc1)[C@H]2c1cccc([N+](=O)[O-])c1`?
eIF4H FP inh: 5; CSC inhib: -3; MT1-MMP act inh: -6; Rce1 inh: inactive; PABP FP inh: -2; Env fusion inh: inconclusive; Yeast UUG start: -12; MT1-MMP act inh RFP: -4

How did CN(CC(=O)NCc1cccs1)S(=O)(=O)c1cccc2cccnc12 do in these assays?
eIF4H FP inh: 10; CSC inhib: -2; MT1-MMP act inh: 0; Rce1 inh: inactive; PABP FP inh: 3; Env fusion inh: -5; Yeast UUG start: 5; MT1-MMP act inh RFP: 6

Results for COc1ccc(CCNc2oc(-c3ccc(C)cc3)nc2C#N)cc1OC ?
eIF4H FP inh: 0; CSC inhib: 5; MT1-MMP act inh: 1; Rce1 inh: inactive; PABP FP inh: 19; Env fusion inh: 20; Yeast UUG start: -7; MT1-MMP act inh RFP: -6

Results for C#Cc1cccc(NC(=O)c2ccc(Cl)cc2Cl)c1 ?
eIF4H FP inh: 1; CSC inhib: 8; MT1-MMP act inh: -1; Rce1 inh: inactive; PABP FP inh: 10; Env fusion inh: -104; Yeast UUG start: -30; MT1-MMP act inh RFP: 0

How did CC(=O)Nc1cc(Cl)c(N=Cc2ccc(O)cc2O)cc1Cl do in these assays?
eIF4H FP inh: 98; MT1-MMP act inh: -18; Rce1 inh: inactive; PABP FP inh: 12; Env fusion inh: 17; Yeast UUG start: -22; eIF4H FP inh retest: 26; PABP FP inh retest: 40; MT1-MMP act inh RFP: 19

What do the screens show for `CCOC(=O)C1=C(C)OC(N)=C(C#N)C1C1CCCCC1` (configuration not stated)?
eIF4H FP inh: -10; CSC inhib: 4; MT1-MMP act inh: 1; Rce1 inh: inactive; PABP FP inh: 2; Yeast UUG start: 0; MT1-MMP act inh RFP: 0

What do the screens show for `COc1ccc(N2C(=O)C(CC(=O)Nc3ccc(Cl)cc3)N(NC(=O)c3cccc(F)c3)C2=S)cc1` (configuration not stated)?
eIF4H FP inh: -4; CSC inhib: -8; MT1-MMP act inh: 0; Rce1 inh: inactive; PABP FP inh: -7; Env fusion inh: -62; Yeast UUG start: -20; MT1-MMP act inh RFP: -11

What do the screens show for `COc1ccc(CN2C[C@@H](CO)O[C@@H](n3cnc4c(N5CCN(c6ccccc6)CC5)ncnc43)C2)cc1`?
MT1-MMP act inh: 9; Env fusion inh: 9; Yeast UUG start: -9; MT1-MMP act inh RFP: -21

What do the screens show for `Cc1cc(/C=N/NC(=O)c2ccccc2F)c(C)n1-c1ccccc1`?
eIF4H FP inh: 0; CSC inhib: 45; MT1-MMP act inh: 2; Rce1 inh: inactive; PABP FP inh: 10; Env fusion inh: -78; MT1-MMP act inh RFP: 2

How did O=C(CNC(=O)c1ccccc1F)OCC(=O)N1CCCCC1 do in these assays?
eIF4H FP inh: -14; CSC inhib: -1; MT1-MMP act inh: -1; Rce1 inh: inactive; PABP FP inh: -6; Env fusion inh: 21; MT1-MMP act inh RFP: 2

What do the screens show for `COc1ccc(C2C(C(=O)c3cccs3)=C(O)C(=O)N2CCN2CCOCC2)c(OC)c1` (configuration not stated)?
eIF4H FP inh: -6; CSC inhib: -3; MT1-MMP act inh: 2; Rce1 inh: inactive; PABP FP inh: 4; Env fusion inh: -2; Yeast UUG start: -16; MT1-MMP act inh RFP: 4

What do the screens show for `N#Cc1ccccc1NC(=O)Nc1cccc(Cl)c1`?
eIF4H FP inh: -6; CSC inhib: -4; MT1-MMP act inh: 5; Rce1 inh: inactive; PABP FP inh: 0; MT1-MMP act inh RFP: 6

What do the screens show for `COc1ccc(CNCCc2ccccc2)cc1OCC(N)=O`?
eIF4H FP inh: 7; CSC inhib: 14; MT1-MMP act inh: -2; Rce1 inh: inactive; PABP FP inh: 2; Env fusion inh: 0; Yeast UUG start: -3; MT1-MMP act inh RFP: 13

How did CC(=O)Nc1ccc2c(c1)C(=O)N(c1ccc(C)cc1)C2=O do in these assays?
eIF4H FP inh: -8; CSC inhib: -6; MT1-MMP act inh: -6; Rce1 inh: inactive; PABP FP inh: 3; Env fusion inh: -75; Yeast UUG start: -19; MT1-MMP act inh RFP: -4

How did CCCCN(C(=O)CSc1nc2ccccc2s1)c1c(N)n(CCCC)c(=O)[nH]c1=O do in these assays?
CSC inhib: -2; MT1-MMP act inh: -10; Env fusion inh: -2; Yeast UUG start: 6; MT1-MMP act inh RFP: -2

What do the screens show for `CN(C)c1nc(NCc2ccccc2)nc(SCC(=O)Nc2ccccc2Cl)n1`?
eIF4H FP inh: 8; CSC inhib: 6; MT1-MMP act inh: -6; Rce1 inh: inactive; PABP FP inh: -4; Env fusion inh: 13; Yeast UUG start: -13; MT1-MMP act inh RFP: -8

What do the screens show for `CC(NC(=O)Nc1cccc([N+](=O)[O-])c1)(C(F)(F)F)C(F)(F)F`?
eIF4H FP inh: -1; CSC inhib: 2; MT1-MMP act inh: 3; PABP FP inh: -8; Yeast UUG start: 25; MT1-MMP act inh RFP: -3

Results for COc1ccc(C(=O)COC(=O)CNS(=O)(=O)c2ccc(C)cc2)cc1 ?
eIF4H FP inh: 9; MT1-MMP act inh: 3; Rce1 inh: inactive; PABP FP inh: 3; Env fusion inh: -9; Yeast UUG start: -1; MT1-MMP act inh RFP: 5

How did COc1ccccc1-c1nc2n(n1)C(c1ccc(Cl)cc1)C(C(N)=O)=C(C)N2 (configuration not stated) do in these assays?
eIF4H FP inh: -3; CSC inhib: -4; MT1-MMP act inh: 1; Rce1 inh: inactive; PABP FP inh: 1; Env fusion inh: -35; Yeast UUG start: -7; MT1-MMP act inh RFP: 8

How did Cc1ccc(NC(=O)C(=O)NN=C2CCCC2)cc1C do in these assays?
eIF4H FP inh: -8; MT1-MMP act inh: 0; Rce1 inh: inactive; PABP FP inh: -5; Env fusion inh: -6; MT1-MMP act inh RFP: 2

What do the screens show for `CS(=O)(=O)CCC(C(=O)N1CCOCC1)N1C(=O)c2cc(Cl)c(Cl)cc2C1=O` (configuration not stated)?
eIF4H FP inh: 8; CSC inhib: 6; MT1-MMP act inh: 5; PABP FP inh: -10; Env fusion inh: 1; Yeast UUG start: -8; MT1-MMP act inh RFP: 7

How did C(#CSCc1ccccc1)SCc1ccccc1 do in these assays?
MT1-MMP act inh: 0; Env fusion inh: -13; Yeast UUG start: -26; MT1-MMP act inh RFP: 5

Results for CC(=O)Nc1cc(-c2ccc(N3CCN(C)CC3)cc2)cn2c(-c3cccc(C(C)=O)c3)cnc12 ?
MT1-MMP act inh: -10; Env fusion inh: 15; Yeast UUG start: -8; MT1-MMP act inh RFP: 5

How did CCCc1cc(N2CCCC(C(=O)Nc3c(OC)cccc3OC)C2)n2ncnc2n1 (configuration not stated) do in these assays?
eIF4H FP inh: 9; CSC inhib: -4; MT1-MMP act inh: 2; PABP FP inh: 4; Env fusion inh: 23; Yeast UUG start: -12; MT1-MMP act inh RFP: 6

Results for COC/C=C/C1=CC2=CC(=O)C(C)(OC(=O)c3ccco3)C(=O)C2=CO1 (configuration not stated) ?
eIF4H FP inh: inconclusive; CSC inhib: 12; PABP FP inh: inconclusive

Screens: PubChem, several laboratories

Some of the compounds tested; the hit share may differ from the screen's.
